GIRK2 act – GIRK2 channel activation; P48051; HEK293-GIRK2 thallium flux, Thallos fluorescence; calls only for hits at 25 µM; hit rate 0.05% among 63,000;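 active = among the strongest 0.2% of first-round signals and kept after retests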;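 note: first round at about 10 µM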
Target sequence (P48051 whole entry, looked up): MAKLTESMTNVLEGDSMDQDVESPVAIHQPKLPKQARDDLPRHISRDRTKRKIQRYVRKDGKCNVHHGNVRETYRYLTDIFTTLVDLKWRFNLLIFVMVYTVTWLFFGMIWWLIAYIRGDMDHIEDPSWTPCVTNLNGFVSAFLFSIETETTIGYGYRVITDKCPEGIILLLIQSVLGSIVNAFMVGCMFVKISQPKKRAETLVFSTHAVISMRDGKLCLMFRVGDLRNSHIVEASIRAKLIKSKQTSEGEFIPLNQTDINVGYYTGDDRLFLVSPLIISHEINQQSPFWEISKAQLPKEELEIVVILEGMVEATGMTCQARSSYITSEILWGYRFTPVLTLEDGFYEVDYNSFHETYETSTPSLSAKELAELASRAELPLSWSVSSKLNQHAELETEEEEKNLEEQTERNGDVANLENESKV
Calls only; i = inactive. Some of the compounds tested; rates above refer to the full screens.

| GIRK2 act | Structure |
| --- | --- |
| i | COc1ccc(OC)c(-c2cc(C(=O)Nc3ccc4c(c3)C(=O)NCC4)n(C)n2)c1 |
| i | C#CCCNC(=O)/C=C/c1ccco1 |
| i | CC1CCN(S(=O)(=O)c2cccn(CC(=O)NCc3ccc(F)cc3)c2=O)CC1 |
| i | Cc1ccc(CNC(=O)CSc2nccn(-c3ccc(C)c(C)c3)c2=O)cc1 |
| i | COc1ccccc1N1CCN(C(=O)COc2cc(C)nc(-c3ccc(F)cc3)n2)CC1 |
| i | N#Cc1ccc(Cl)cc1NC(=O)C(=O)NCCC(O)c1cccc2ccccc12 (centres undefined) |
| i | COC(=O)c1cc(O)cc(OC)c1Oc1c(Cl)c(C)cc(O)c1C(=O)OC |
| i | O=C(NCC1(c2cccs2)CC1)C1c2ccccc2Oc2ccccc21 |
| i | COc1ccccc1Nc1nn2c(=O)c3cc(Cl)ccc3nc2s1 |
| i | COC(=O)Cc1c(C)n(Cc2ccc(I)cc2)c2ccc(OC)cc12 |
| i | COc1ccccc1N1CCN(S(=O)(=O)c2ccc(F)c(C(=O)Nc3cc(C(F)(F)F)ccc3Cl)c2)CC1 |
| i | O=C(CSc1nnc(N2CCN(c3ccc(F)cc3)CC2)s1)N1CCCC1 |
| i | CSCCC(C)(O)CNC(=O)C(=O)Nc1ccc(F)c(Cl)c1 (centres undefined) |
| i | CCOC(=O)NCC1CCN(Cc2cc(C)oc2C)CC1 |
| i | O=C(N1CCC2(CC1)OCCS2)C1(c2ccccc2)CCOCC1 |
| i | CCS(=O)(=O)N1CCCc2ccc(NS(=O)(=O)c3ccc(OC)cc3)cc21 |
| i | COc1cccc(N2CCn3c2nc2c3c(=O)n(CCN3CCCCC3)c(=O)n2C)c1 |
| i | COc1ccc(S(=O)(=O)N2CCCCC2)cc1C(=O)Nc1cccc(C)n1 |
| i | O=C(Nc1nc2c(s1)CCC2)Nc1ccccc1C(F)(F)F |
| i | O=C(c1ccco1)N1CCN(c2cc(N3CCCC3)ncn2)CC1 |
| i | Cc1noc(NS(=O)(=O)c2ccc(NC(=O)CNC(=O)c3c[nH]c4ccccc34)cc2)c1C |
| i | COc1cccc2c(NC(=O)c3cccc(S(=O)(=O)N4CCCC4)c3)cc(C)nc12 |
| i | O=C(Cn1c2ccccc2c2ncn(Cc3nc(-c4ccccc4)no3)c(=O)c21)Nc1ccccc1F |
| i | COc1ccc(/C=C2\Oc3c(ccc(OC(=O)N4CCOCC4)c3C)C2=O)cc1OC |
| i | Cc1cc(S(=O)(=O)N2CC(c3nc(-c4ccc[nH]c4=O)no3)C2)c(Cl)cc1Cl |
| i | COCCCn1cnc2c(-c3ccccc3)cn(CC(=O)Nc3ccc(F)cc3)c2c1=O |
| i | CSc1cccc(NC(=O)CN2CCC3(CC2)N=C(c2ccc(C)cc2)C(=O)N3)c1 |
| i | Cn1nnn(-c2ccc(NC(=O)NCc3cccs3)cc2)c1=O |
| i | Cc1noc(C2(NC(=O)Nc3cccc(F)c3C)CCCCC2)n1 |
| i | Cc1cc(NC(=O)CN2CC(c3nc(-c4ncccn4)no3)C2)no1 |
| i | CCOc1cccc(-c2noc(Cn3cc(-c4nc(-c5cccs5)no4)ccc3=O)n2)c1 |
| i | Cc1c(CNC(=O)C2Oc3ccccc3OC2C)sc2nc(-c3ccc(F)cc3)cn12 (centres undefined) |
| i | O=C(NCCN1CCN(C(=O)c2ccc(C(F)(F)F)cc2)CC1)c1ccsc1 |
| i | COc1ccc(NC(=O)c2sccc2S(=O)(=O)N2CCN(c3cccc(OC)c3)CC2)cc1 |
| i | Cc1cnn(C)c1C(=O)N=c1sc2c(Cl)ccc(C)c2n1C |
| i | COc1cc(=O)c(C(=O)NCCc2ccccc2)nn1-c1ccc(C)cc1 |
| i | Cc1cc(C(=O)N2CC3CC2C(=O)O3)c(C)o1 (centres undefined) |
| i | CN1CCC(n2cnc(-c3ccc(F)cc3)c2-c2ccnc(Nc3ccccc3)n2)CC1 |
| i | Cc1ccc(S(=O)(=O)c2nnn(-c3ccc(F)cc3)c2C)cc1 |
| i | CC(Cc1ccco1)NC(=O)C(=O)Nc1cccc(C(F)(F)F)c1 (centres undefined) |
| i | COc1ccc(-n2nnc3c(N4CCN(C(=O)c5ccc(OC)cc5OC)CC4)ncnc32)cc1 |
| i | O=C(Nc1cnc(N2CCN(c3ccccn3)CC2)nc1)c1cccc(Cl)c1 |
| i | O=C(Cc1ccccc1Cl)N1CCC(Oc2cnccn2)CC1 |
| i | Cc1ccc(-n2cc(C(=O)N3CCC(NC(=O)c4cccc(N(C)C)c4)CC3)nn2)cc1C |
| i | COc1cccc(C(=O)N2CCC(Oc3nc4c(Cl)cccc4s3)CC2)c1OC |
| i | CCC(C(=O)N1CC(c2nc(-c3ccc[nH]c3=O)no2)C1)c1ccccc1 (centres undefined) |
| i | Cc1ccc(COc2coc(CSc3nncn3C)cc2=O)cc1 |
| i | COc1cccc(S(=O)(=O)N2CCN(CC(F)(F)F)CC2)c1 |
| i | COc1ccccc1CNC(=O)c1c(O)c2sccc2[nH]c1=O |
| i | O=c1cccc2n1CC1CC2CN(CCOc2ccc(-c3[nH]ncc3-c3ccccc3)c(O)c2)C1 (centres undefined) |

4 entries drawn at random from those above, as already listed:
| GIRK2 act | Structure |
| --- | --- |
| i | COc1ccc(-n2nnc3c(N4CCN(C(=O)c5ccc(OC)cc5OC)CC4)ncnc32)cc1 |
| i | CCC(C(=O)N1CC(c2nc(-c3ccc[nH]c3=O)no2)C1)c1ccccc1 (centres undefined) |
| i | COc1cccc(C(=O)N2CCC(Oc3nc4c(Cl)cccc4s3)CC2)c1OC |
| i | COc1ccccc1CNC(=O)c1c(O)c2sccc2[nH]c1=O |

Next part:
| GIRK2 act | Structure |
| --- | --- |
| i | CCOC(=O)C1CCN(CC(O)COc2ccc(Br)cc2Br)CC1 (centres undefined) |
| i | COc1ccc2c(c1)c(=O)c(S(=O)(=O)c1ccc(C)cc1)cn2Cc1ccccc1Cl |
| i | CCOc1ccc(S(=O)(=O)N(C)C2CCCCC2)c2ccccc12 |
| i | COc1ccc(-c2csc3c(=O)n(CC(=O)Nc4cccc(C(F)(F)F)c4)cnc23)cc1 |
| i | COc1ccccc1COc1cc(NC(=O)Cc2noc3ccccc23)ncn1 |
| i | Cc1ccsc1C(O)CNS(=O)(=O)c1c(C)nn(C)c1C (centres undefined) |
| i | COc1cccc(COc2cn(C)c(C(=O)Nc3nc(C)cs3)cc2=O)c1 |
| i | CCCCN1CC(c2nc3ccccc3n2CCOc2c(C)cccc2C)CC1=O (centres undefined) |
| i | CC(=O)NCCNC(=O)CCn1c(=O)[nH]c2ccccc2c1=O |
| i | COc1ccc(OC)c(-c2cc3ccc(OC(=O)c4cccs4)cc3oc2=O)c1 |
| i | COc1ccc(-c2c(NC(=O)c3ccco3)oc3ccc(Cl)cc3c2=O)cc1 |
| i | COc1ccc(-c2noc(-c3cc(-c4ccc(OC)cc4OC)n[nH]3)n2)cc1 |
| i | Cc1cc(=O)n2c(-c3cccc(NC(=O)Cc4ccc(F)cc4)c3)csc2n1 |
| i | O=C(NC1CCN(c2ccc(-c3ccccc3Cl)nn2)CC1)c1ccco1 |
| i | N#Cc1ccc(OC2CCN(C(=O)c3ccc4c(c3)OCO4)CC2)nc1 |
| i | CCc1ccc(NC(=O)Cn2cc(-c3nc(-c4ccc(OC)cc4)no3)ccc2=O)cc1 |
| i | Cc1cccc(Cl)c1NC(=O)Cn1cnc2c(-c3ccc(F)cc3)cn(C)c2c1=O |
| i | CCC1CCCCN1CCCn1c(=S)[nH]c2cc(C(=O)OC)ccc2c1=O (centres undefined) |
| i | CCOc1ccc(-c2nc(Cn3nnc(C(=O)Nc4ccc(OC)cc4)c3C)c(C)o2)cc1 |
| i | O=C(Nc1nccs1)c1cc(-c2cccs2)[nH]n1 |

Nothing new here: an excerpt of the list.
| GIRK2 act | Structure |
| --- | --- |
| i | N#Cc1ccc(Cl)cc1NC(=O)C(=O)NCCC(O)c1cccc2ccccc12 (centres undefined) |
| i | COC(=O)c1cc(O)cc(OC)c1Oc1c(Cl)c(C)cc(O)c1C(=O)OC |
| i | O=C(NCC1(c2cccs2)CC1)C1c2ccccc2Oc2ccccc21 |
| i | COc1ccccc1Nc1nn2c(=O)c3cc(Cl)ccc3nc2s1 |

(more compounds)
| GIRK2 act | Structure |
| --- | --- |
| i | CCCn1cc(C(=O)NCc2cc(F)cc(F)c2)c(S(=O)(=O)N2CCC(C)CC2)n1 |
| i | CC(O)(CNS(=O)(=O)c1ccc(N2CCCCS2(=O)=O)cc1)c1ccccc1 (centres undefined) |
| i | Cc1csc(CN2CCN(C(=O)c3ccc4c(c3)OCO4)CC2)n1 |
| i | O=C(NCc1nn(C2CCCC2)c(=O)c2ccccc12)c1cccc2ccccc12 |
| i | COc1ccc(NC(=O)CN2C(=O)NC(c3ccc(C)cc3)C3=C2COC3=O)cc1Cl (centres undefined) |
| i | COc1ccc(-c2c(C)oc3cc(OC(=O)c4cccs4)ccc3c2=O)cc1OC |
| i | CCOc1ccc(-c2cc3c(=O)n(CC(=O)Nc4ccccc4Cl)ccn3n2)cc1 |
| i | Cc1noc(C)c1CCC(=O)N1CCC(c2nnc(-c3ccco3)o2)CC1 |
| i | Cc1ccccc1NC(=O)NCCc1nc(-c2cccs2)cn1C |
| i | O=C(CC(c1ccccc1)c1ccccc1)Nc1cc(N2CCCCC2)ncn1 |

2 of these compounds in a different format.
compound	GIRK2 act
CCOc1ccc(-c2cc3c(=O)n(CC(=O)Nc4ccccc4Cl)ccn3n2)cc1	i
Cc1noc(C)c1CCC(=O)N1CCC(c2nnc(-c3ccco3)o2)CC1	i

(listing goes on)
| GIRK2 act | Structure |
| --- | --- |
| i | O=C(c1ccsc1)N1CCC(COCc2ccc(F)cc2)CC1 |
| i | CCn1cc(NC(=O)N2CCc3ccccc32)c2ccccc21 |
| i | COc1ccc(-c2cn[nH]c2-c2ccc(OCCN3CCOCC3)cc2O)cc1OC |
| i | COc1ccccc1NC(=O)CSc1nnc(CCc2c(C)[nH]c(=O)n(C)c2=O)o1 |
| i | Cn1c(-c2ccccn2)nn(CCNC(=O)c2ccc(Cl)s2)c1=O |
| i | O=C(CN1CCC(c2nc(-c3cccs3)no2)CC1)NCc1ccc2c(c1)OCO2 |
| i | CCc1ccccc1NC(=O)Cn1nc(-c2ccc(F)cc2)c2sc(N3CCCC3)nc2c1=O |
| i | Cc1oc(-c2ccc(Cl)cc2)cc1-c1nnc(-c2cccnc2)o1 |
| i | O=C(c1nnn(-c2ccc(Cl)cc2)n1)N1CC(O)C1 |
| i | CCOc1ccccc1C(=O)Nc1ccc2c(c1)C(=O)NCC2 |
| i | CC(O)(CNC(=O)C(=O)Nc1ccccc1Cl)c1ccc2c(c1)OCO2 (centres undefined) |
| i | COc1ccc(-n2c(C)nc3ccc(NC(=O)c4cccc([N+](=O)[O-])c4C)cc3c2=O)cc1 |
| i | CCOC(=O)C1CCN(C(=O)CN2CCN(c3ccc4c(c3)OCO4)C2=O)CC1 |
| i | O=C(NCCN1CCN(C(=O)c2cccs2)CC1)c1ccc[nH]c1=O |
| i | CCCn1c(C(=O)N(CC)c2ccccc2)cc2c(=O)n(C)c(=O)n(C)c21 |
| i | CN1CCN(C(=O)c2cc(-c3cccs3)n(CC(=O)Nc3ccc(F)cc3F)n2)CC1 |
| i | COc1cccc(-n2c(C)cn3c4c(=O)n(Cc5ccccc5C)c(=O)n(C)c4nc23)c1 |
| i | O=C(CCCn1cccc1)N1CCc2ccccc21 |
| i | Cc1ccc(N2C(=N)SC(Cc3ccc(Cl)cc3)C2=O)cc1 (centres undefined) |
| i | Cc1ccccc1-c1ccc(N2CCCC(C(=O)Nc3ccc(Cl)cc3Cl)C2)nn1 (centres undefined) |
| i | CCC(C)NC(=O)/C=C/c1ccc(OC)cc1OC (centres undefined) |
| i | CCOc1ccccc1C(=O)Nc1cc(-n2c(C)nc3ccccc3c2=O)ccc1F |
| i | COc1ccccc1NC(=O)c1nnn(-c2ccc(C)cc2)c1C1CC1 |
| i | CC1CCN(c2nccnc2Oc2ccc(C(=O)N3CCN(c4ccccc4F)CC3)cc2)CC1 |
| i | CCOC(=O)c1cnn2ccc(NC(=O)c3cnn(-c4ccccc4)c3C)cc12 |
| i | CCOc1ccc(NC(=O)COC(=O)CC(C)CC2=NS(=O)(=O)c3ccccc3N2)cc1 (centres undefined) |
| i | Cc1ccccc1-c1ccc(N2CCCC(C(=O)NCCc3c[nH]c4ccccc34)C2)nn1 (centres undefined) |
| i | Cc1ccc(NC(=O)C2CCN(c3ncccc3S(=O)(=O)N3CCCCC3)CC2)cc1 |
| i | COC(=O)C12C(=O)C(C)=C(O)C1(C)C(C)=CC1C34CCC(OC3=O)C(C)(C)C4CCC12C (centres undefined) |
| i | O=C(NCC1CCCO1)C(=O)Nc1ccc(C(F)(F)F)cc1 (centres undefined) |
| i | CC(C)c1cnc(NC(=O)Cc2ccccc2)s1 |
| i | O=C(CCc1csc(NC(=O)c2ccc[nH]c2=O)n1)NCc1nc2ccccc2[nH]1 |
| i | O=C(Cn1cnc2c(-c3ccc(Cl)cc3)csc2c1=O)NC1CCCC1 |
| i | COc1ccc(CC(=O)Nc2cnc(N3CCN(c4ccccc4)CC3)nc2)cc1 |
| i | Cc1c(-c2nc(-c3ccc(Cl)cc3)no2)sc2ncn(CC(=O)Nc3ccccc3F)c(=O)c12 |
| i | CCOc1ccc(-c2noc(Cn3nc(-c4ccccc4Cl)ccc3=O)n2)cc1 |
| i | O=C(NCC#CCN1CCCC1)NC(c1ccccc1)c1ccccc1 |
| i | COc1cccc2sc(N(C)CC(=O)Nc3nc(-c4ccco4)cs3)nc12 |
| i | Cc1ccc(C)c(CC(=O)Nc2sc3c(c2-c2nc4ccccc4s2)CCC(C)C3)c1 (centres undefined) |
| i | COc1ccc(C2C(=C(O)c3ccc(Cl)cc3)C(=O)C(=O)N2c2nccs2)cc1OC (centres undefined) |
| i | O=C(CSc1ccc(F)cc1)N1CCC2(CC1)OCCS2 |
| i | COc1ccccc1N1CCN(c2nc(N3CCOCC3)c3n[nH]nc3n2)CC1 |
| i | O=C(CN1CC(c2nc(Cc3ccccc3)no2)C1)Nc1cccc(Cl)c1 |
| i | COc1ccc(C2CCN(C(=O)c3nc4ccccc4s3)C2)cc1 (centres undefined) |
| i | CN(C)CC1COCCN1C(=O)C1CCCCC1 (centres undefined) |
| i | O=C(c1cccs1)c1ccc(CNS(=O)(=O)c2ccc3c(c2)OCCO3)s1 |
| i | O=C(/C=C/c1ccco1)NCc1cc(-c2cccs2)n(C2CCCC2)n1 |
| i | COc1ccc(NC(=O)Cn2nc3ccc(-c4ccc(Cl)cc4)nn3c2=O)cc1 |
